NPYLR7 agonist – activates Aedes aegypti NPYLR7 receptor. HEK293T NPYLR7/Galpha15, GCaMP6s calcium fluorescence. activation, % at 10 µM. 270,000 tested, 0.15% active. AID 1259423; in the data active = activation above about 40%;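 note: 0% = vehicle and 100% = reference agonist at the receptor; some compounds past the cut are filed as inactive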
NPYLR7 agonist max-min – recorded beside NPYLR7 agonist, whose call it bears; activation, %; measured here: Max-Min RFU normalised activation; some inactives read as strong as hits;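 span of the calcium signal over five minutes; 0% = vehicle and 100% = native peptide agonist; compound fluorescence can raise it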
Active calls of the source: *.

SMILES	NPYLR7 agonist	NPYLR7 agonist max-min
CCN(CC)CCCC(C)NC(=O)c1ccc(-c2cc(-c3ccc(Cl)cc3)[nH]n2)cc1 (stereo unspecified)	22.4	11.4
O=C1/C(=C/c2ccc(Cl)cc2)C=C(c2ccccc2)N1c1ccc(Sc2ccc([N+](=O)[O-])cc2)cc1	-2.1	-1.3
CCOc1ccc(C(=O)NCc2ccc3c(c2)cc(C)n3C)cc1	5.1	0.0
Fc1cc(CNCC2CCCn3ccnc32)ccc1N1CCOCC1 (stereo unspecified)	-2.0	-2.9
CCCn1c(SC2c3ccccc3-c3ccccc32)n[nH]c1=O	0.1	0.2
COc1ccc(N2CC(c3nc4ccccc4n3CC(=O)OC(C)C)CC2=O)cc1 (stereo unspecified)	1.4	-1.1
CCCSc1nnc2c(n1)OC(C)(CC)Nc1ccccc1-2 (stereo unspecified)	-4.1	-5.1
NC(=O)C12CCCC(Br)(CCC1)C2	6.3	9.2
COc1ccc(-c2c(C)nn(-c3ccccc3)c2C)c(C(=O)N2CCN(c3ccccn3)CC2)c1	-9.2	-14.1
Cc1cc(C)n(-c2nc3cc(Cl)c(Cl)cc3n3cnnc23)n1	-3.1	-4.6
Cc1ccsc1[C@@H]1CCN(Cc2ncc[nH]2)C[C@H]1O	13.4	11.0
COc1ccc(CC(=O)Nc2nnc(SCc3cccc(F)c3)s2)cc1	-6.6	-13.7
CN1CCOc2cc(S(=O)(=O)N3C[C@H](N(C)C)C[C@H]3CO)ccc21	3.0	0.7
CC1=C(C(=O)OC(C)C)C(c2ccncc2)n2c(nc3ccccc32)N1 (stereo unspecified)	-9.4	-13.7
CC1C(=O)N(c2cccc(Br)c2)CCN1C(=O)c1cccs1 (stereo unspecified)	-1.4	7.9
Cc1ccc(NC2(C(=O)N3CCCC3c3cc(C)no3)CCCC2)cc1 (stereo unspecified)	-13.6	-20.2
COc1cccc(F)c1-c1ccc(C(=O)NC(C)(C)C)o1	7.0	2.2
Cc1nnc(Sc2nc3ccccc3s2)c2ccccc12	-1.3	-4.0
COc1cn(CC(=O)Nc2cccc(C)c2)c(CSc2ncccn2)cc1=O	-3.8	-9.2
N#CCNC(=O)c1cc2nc(-c3ccco3)cc(C(F)(F)F)n2n1	5.9	4.1
Cc1ccccc1-n1c(SCC(=O)O)nc2c([nH]c3ccccc32)c1=O	-5.0	-4.7
Cc1nc(CC(C)C)sc1C(=O)N1CCC(C2(C)OCCO2)CC1	3.3	0.9
CCOC(=O)CNC(=O)N1CCc2ccc(NC(=O)c3ccccc3OC)cc2C1	5.9	1.5
COCc1nn2c3c(cnc2c1-c1ccc(Cl)cc1)C(=O)CC(C)(C)C3	-1.3	37.7
C=CCSc1nc2sc3c(c2c(=O)[nH]1)CCCC3	3.7	-0.1
CC(C)(Oc1ccc(Cl)cc1)C(=O)NCc1cnn(-c2ccccc2)c1	5.9	1.4
O=C(OCc1nc(C(=O)N2CCc3ccccc3C2)cs1)c1ccccc1	15.1	13.4
Cc1c(-c2nccn2CCC2CCCN2C)c(=O)n(-c2ccccc2)n1C (stereo unspecified)	5.2	3.8
CCCc1nc(CN(CC)C(=O)c2cc(-c3ccccc3)nn2C)no1	-2.0	0.5
NC1C=CC=C(C(=O)O)C1 (stereo unspecified)	1.3	1.7
Cc1ccccc1-c1nc(-c2c(N)n(C)c(=O)n(C)c2=O)c(C)s1	-3.0	-3.2
COc1cccc(CC2(C(=O)O)CCN(c3nccc4occc34)CC2)c1	-2.9	-2.0
CC(C)CC(NC(=O)CN1CCN(c2ccccn2)CC1)c1ccccc1 (stereo unspecified)	6.7	2.4
CSc1ccccc1C(=O)N1CCN(S(=O)(=O)c2ccc3ccccc3c2)CC1	1.4	6.4
COC(=O)CCCOc1ccc(Cl)cc1Cl	-1.1	-4.3
CCNC(=O)N1CC(C(=O)N2CCSCC2)CC(c2cccc(C)c2)C1 (stereo unspecified)	8.2	3.7
O=C(NCc1cccs1)C1=CC=CN2CCS(=O)(=O)N=C12	-0.3	19.1
CCOC(=O)c1sc(N2C(=O)C(O)=C(C(=O)c3ccc(C)o3)C2c2ccc(C)cc2)nc1C (stereo unspecified)	0.9	-1.0
CCn1nnnc1SCc1ccc(C(=O)N2C3CCC2CC(Oc2cc(C)ccc2Cl)C3)cc1 (stereo unspecified)	3.9	-5.4
OCCCc1cn(C2CCN(Cc3cccc(Cl)c3F)CC2)nn1	19.5	7.3
Cc1cccc(Cc2nc3c(c(N4CCOCC4)n2)CN(C(=O)Nc2cc(C(F)(F)F)cc(C(F)(F)F)c2)CC3)c1	-9.2	-12.6
COC(=O)CCCNC(=O)c1ccc(OC)c(OC2CCN(C(C)C)CC2)c1	-3.6	-5.7
O=C(Nc1ccc2[nH]cc(CCN3CCc4ccccc4C3)c2c1)c1cc(C(F)(F)F)cc(C(F)(F)F)c1	20.0	13.3
CN1CCN(C(=O)c2cnn3c(C(F)(F)F)cc(-c4ccco4)nc23)CC1	22.9	10.6
Cc1ccc(Oc2ccc(NCc3ccco3)cn2)c(C)c1	8.4	4.2
COc1cc(C=C(C#N)C#N)ccc1OC(=O)c1cccs1	-5.5	-7.9
Cc1[nH]c(=S)sc1CC(=O)NC(c1ccc(Cl)cc1)c1nccn1C (stereo unspecified)	-4.3	-5.8
Cc1cc(NC(=O)c2ccco2)sc1C(=O)NCCc1ccccc1	0.8	7.4
Cc1ccn2c(NC(=O)C3CCC3)c(-c3cccc(Cl)c3)nc2c1	-13.4	-4.5
COc1ccccc1/C=C/C=C1\N=C(c2cccc(Br)c2)OC1=O	-1.7	-4.9
CC(C)CC1N=C2c3ccccc3N=C(SCc3cc(=O)n4cc(Br)ccc4n3)N2C1=O (stereo unspecified)	6.7	1.9
Cc1cc(C(=O)CSc2nnc(NC3CC3)s2)c(C)s1	0.0	-1.3
N#Cc1ccc(/C=C2/SC(=S)N(CC(=O)O)C2=O)cc1	-2.2	-10.3
CC1(C(=O)NCc2cccc3ccccc23)CCN1C(=O)C/C=C/c1ccccc1 (stereo unspecified)	1.6	12.3
COc1ccc(N2CCN(C(=O)c3ccc(Cl)cc3)C(C)C2=O)c(OC)c1 (stereo unspecified)	16.2	9.6
COC(=O)c1c(C)c(C(=O)C(C)N(Cc2ccc(F)cc2)C(=O)c2cccc(Br)c2)c(C)n1C (stereo unspecified)	-7.8	-4.8
O=C1[C@H](Cc2ccc(O)cc2)N2C(=O)CCN(C(=O)NCc3ccccc3)[C@H]2CN1Cc1cccc2ccccc12	7.6	-2.0
Cc1cc(CC(=O)Nc2ccccc2Sc2c(C)n[nH]c2C)on1	-5.9	-10.7
COc1ccc(OCc2nnc(SCCOc3ccc(F)cc3)n2C)cc1	1.0	-0.2
CCN1CCN(C(=O)c2ccc(CSc3nnc(-c4cccs4)n3-c3ccc(F)cc3)cc2)CC1	5.1	9.1
Other entries.
SMILES	NPYLR7 agonist	NPYLR7 agonist max-min
N#CC(=Cc1ccncc1)c1nnc2n1CCCCC2	-1.5	5.1
CCOC(=O)c1ccccc1NC(=O)CSc1cn(CC(=O)N(CC)CC)c2ccccc12	-4.2	-11.8
CCCCCN(CC(=O)N(CCCC)Cc1cccn1Cc1ccc(Br)cc1)C(=O)c1ccc(-c2ccccc2)cc1	0.4	16.2
CC(C)CN(CC(=O)N(Cc1ccc2c(c1)OCO2)Cc1ccco1)S(=O)(=O)c1cc(Cl)ccc1Cl	10.8	18.1
Cc1n[nH]c(C)c1S(=O)(=O)N(C)C1CCCC1	7.9	2.6
CCCCN(C)c1c(CC)nc2ccc(C(=O)NCCc3ccccn3)cn12	-1.5	-13.3
CSc1ccc(C(=O)CC(C)(C)C(=O)N2CCC(O)(c3ccc(Cl)cc3)CC2)cc1	-9.3	-15.8
COCCn1c(C)cc(O)c(C(c2ccccc2)N2CCN(c3ccccc3F)CC2)c1=O (stereo unspecified)	4.4	-1.1
Cc1ccc(-n2c(=O)c3ccccc3n(Cc3ccc(C(=O)NCc4ccco4)cc3)c2=O)cc1C	8.1	5.5
Cc1cc(C(=O)CSc2nnc(Cc3cccs3)n2C2CC2)c(C)n1C1CC1	-0.1	2.4
C=C(C)CNC(=O)c1ccc(-n2nc(C(=O)OCC)cc2-c2ccc(CC)cc2)cc1	3.2	0.0
Cc1ccc(C)c(Cc2c(C)nc(-c3ccccc3)nc2N2CCN(C(=O)C3CCC3)CC2)c1	7.1	14.6
Cc1noc(C(C)NC(=O)Cc2cc(Cl)c3c(c2)OCCCO3)n1 (stereo unspecified)	-22.2	-24.6
Cc1nn(CC(O)COc2ccc3c(c2)CCC3)c(C)c1C (stereo unspecified)	-5.3	-6.1
COc1ccc2[nH]c3c(c2c1)CCN(C(=O)CCCCCCl)C3c1ccc(OCc2ccccc2)cc1 (stereo unspecified)	7.0	3.4
O=C(NCc1ccccc1Cn1cncn1)c1ccc(Cl)cc1	0.6	-2.3
Cc1cc(C)nc(N=C(N)N(C2CCCCC2)C2CCCCC2)n1	10.2	8.6
COc1cc(N2CC(CNC(=O)c3ccccc3)OC2=O)cc(OC)c1OC (stereo unspecified)	2.1	4.4
CCc1nn(-c2ccc(F)cc2)c(N2CCN(C(C)C)CC2)c1CN(CC(C)C)C(=O)Cc1ccc(F)cc1	0.2	12.8
O=C(CCc1nnc(CCCCc2ccccc2)o1)NCc1cc(F)ccc1F	-3.1	3.1
O=C(NCc1ccccc1)C1CCN(S(=O)(=O)c2ccc3c(c2)OCCO3)CC1	0.7	7.4
O=P(C=C(O)c1ccc(Cl)cc1)(CO)CO	3.7	8.0
CCOC(=O)c1cc(-c2cccc(NC(=O)c3cccs3)c2)n(-c2ccccc2C)n1	24.5	16.5
Cc1ccc(C)c(C2CC(c3ccc(C)c(C)c3)=NN2C(=O)CN2CCN(c3ccccc3F)CC2)c1 (stereo unspecified)	-3.1	5.2
OCC1CCCCN1CCNCc1cn[nH]c1-c1cccc2ccccc12 (stereo unspecified)	-3.2	-5.0
CCOC(=O)C(C)(C)Sc1nc2c(c(=O)n1-c1ccc(C)cc1)SCC2	-3.0	-4.1
O=C(NCc1cccc(C(F)(F)F)c1)c1ccc(CN2CC=C(c3ccc(F)cc3)CC2)[nH]c1=O	34.2	30.5
COC(=O)c1c(S(=O)(=O)N2CCCCCCC2)sc2c1CCN(C(=O)CSC)C2	36.5	22.2
COc1ccc(C2C(C#N)=C(C)NC3=C2C(=O)CC(c2ccc(Cl)cc2)C3)cc1OC (stereo unspecified)	-2.2	-8.1
COCCCN(Cc1ccc(C(O)(c2cccc(F)c2)c2cccc(F)c2)o1)Cc1cccs1	-8.6	-4.3
CN1CC2(C)CN(C(=O)c3ccccc3NCC(=O)O)CC(C)(C1)C2O (stereo unspecified)	-2.0	-6.0
Cc1ccc(C(NC(=O)c2ccc(-n3cnnc3)cc2)c2ccncc2)cc1 (stereo unspecified)	2.4	1.0
Cc1oc(C(=O)O)cc1S(=O)(=O)Nc1cccc(-c2nccs2)c1	7.3	5.1
CN(C1CCS(=O)(=O)C1)S(=O)(=O)c1ccc(N2CCCC2=O)cc1 (stereo unspecified)	-4.0	-6.9
CC1=C(C(=O)N(C)CCCc2cnn(C)c2)C(c2cccnc2)NC(=O)N1 (stereo unspecified)	4.0	2.6
CCOC(=O)c1cc(-c2ccccc2C)n(-c2ccc(C(=O)NCC3CCCO3)cc2)n1 (stereo unspecified)	-3.0	-14.6
CN(C)c1ccc(Nc2ncnc3ccc(Br)cc23)cc1	5.1	0.2
O=C(c1ccc(F)cc1C(F)(F)F)N1CCN(c2nc3nccc(-c4cccnc4)n3n2)CC1	-17.3	-18.1
COCCCN(CC(=O)N1CCc2sccc2C1c1ccc(C)cc1)C(=O)c1ccc(Br)cc1 (stereo unspecified)	-2.2	-3.9
Cc1cccc(C2Oc3ccccc3C3CC(c4ccc5c(c4)OCCO5)=NN32)c1 (stereo unspecified)	4.8	3.9
COC(=O)c1ccc(S(=O)(=O)N(C)CC(=O)NC(C)(C)C)cc1	3.9	3.1
CNc1nc2cnc(Nc3cc(OC)c(OC)c(OC)c3)cc2n1Cc1cccnc1	9.7	-0.9
C=CCn1c(SCC(=O)NCCc2ccc(OC)cc2)nc2sc3c(c2c1=O)CCC3	-6.3	-8.7
OC(CNc1nccnc1-c1cc(C(F)(F)F)cc(C(F)(F)F)c1)COc1ccccc1 (stereo unspecified)	19.8	3.7
CC(=NNc1ccccn1)c1ccc2c(c1)Nc1ccccc1S2	2.8	9.1
CCCOC(=O)c1ccc(OCC(=O)c2ccc(O)cc2O)cc1	3.9	8.9

Among those listed so far, these have an NH in an aromatic ring:
SMILES	NPYLR7 agonist	NPYLR7 agonist max-min
CCN(CC)CCCC(C)NC(=O)c1ccc(-c2cc(-c3ccc(Cl)cc3)[nH]n2)cc1 (stereo unspecified)	22.4	11.4
CCCn1c(SC2c3ccccc3-c3ccccc32)n[nH]c1=O	0.1	0.2
Cc1ccsc1[C@@H]1CCN(Cc2ncc[nH]2)C[C@H]1O	13.4	11.0
Cc1ccccc1-n1c(SCC(=O)O)nc2c([nH]c3ccccc32)c1=O	-5.0	-4.7
C=CCSc1nc2sc3c(c2c(=O)[nH]1)CCCC3	3.7	-0.1
O=C(Nc1ccc2[nH]cc(CCN3CCc4ccccc4C3)c2c1)c1cc(C(F)(F)F)cc(C(F)(F)F)c1	20.0	13.3
Cc1[nH]c(=S)sc1CC(=O)NC(c1ccc(Cl)cc1)c1nccn1C (stereo unspecified)	-4.3	-5.8
Cc1cc(CC(=O)Nc2ccccc2Sc2c(C)n[nH]c2C)on1	-5.9	-10.7
Cc1n[nH]c(C)c1S(=O)(=O)N(C)C1CCCC1	7.9	2.6
COc1ccc2[nH]c3c(c2c1)CCN(C(=O)CCCCCCl)C3c1ccc(OCc2ccccc2)cc1 (stereo unspecified)	7.0	3.4
OCC1CCCCN1CCNCc1cn[nH]c1-c1cccc2ccccc12 (stereo unspecified)	-3.2	-5.0
O=C(NCc1cccc(C(F)(F)F)c1)c1ccc(CN2CC=C(c3ccc(F)cc3)CC2)[nH]c1=O	34.2	30.5

3 structures already listed, sorted by length of the SMILES, low to high.
SMILES	NPYLR7 agonist	NPYLR7 agonist max-min
CC(=NNc1ccccn1)c1ccc2c(c1)Nc1ccccc1S2	2.8	9.1
CCCOC(=O)c1ccc(OCC(=O)c2ccc(O)cc2O)cc1	3.9	8.9
OC(CNc1nccnc1-c1cc(C(F)(F)F)cc(C(F)(F)F)c1)COc1ccccc1 (stereo unspecified)	19.8	3.7

Source: PubChem

The list is partial, so the mix of outcomes need not match the whole.
